Screens as filed in PubChem BioAssay.
A647 autofl: compound fluoresces in the A647 spectral region | Compound fluorescence, A647 channel (570/671 nm), Tris buffer | max dye-equivalent concentration, M | 59,000 tested, under 10 active | AID 592; active means above 1 µM dye equivalent; inconclusive means 0.1 to 1 µM; inactive means 0.1 µM or less;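 note: values scaled relative to a standard on each plate; highest value over a series up to 38 µM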
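Fluorescence read (570 nm ex, 671 nm em) after 15 min RT incubation of compounds in 100 mM Tris buffer, pH 8.0; values expressed as dye-equivalent concentration against a six-point A647 standard series on each plate.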
AID923: qHTS Assay for Allosteric/Competitive Inhibitors of Caspase-1: Spectroscopic Profiling in AFC Spectral Region; compound fluorescence, AFC spectral region (405/520 nm); almost no hit is shown here; Potency, µM (top dose mostly 57.5 µM), for inactives: at the top dose fluorescence increase, usual class: activators; 75,000 compounds, 1.1% hits; active = well fitted activation curve with a large enough effect; inconclusive = small, poorly fitted or top-dose-only effect;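 note: potency is the fitted concentration of half-maximal effect; 0% is about no effect; scaled to a free AFC standard on each plate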
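Compound autofluorescence profiled at 405 nm ex/520 nm em during kinetic caspase 1 run (50 nM enzyme, 5 uM Ac-WEHD-AFC, HEPES pH 7.5, 10 mM DTT). Titration up to 57 uM; baseline from regression intercept, normalized to AFC standard curve.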
TSHR ag: TSH receptor (human) agonism. P16473. HEK293-CNG-TSHR cells (CNG channel as cAMP sensor), membrane potential dye, cAMP. Potency, µM (doses to about 57.1 µM), without a hit: at the highest dose activation, actives largely listed as activators. 73,000 compounds, 0.48% hits. AID 926; active = well fitted activation curve of enough size with the parental cells flat; inconclusive = any curve in the parental cells; inactive = parental cells flat and receptor cells flat or falling; note: potency is the fitted concentration of half-maximal effect; % of control where 0% means no effect; weak receptor curves with flat parental cells got no call and are not listed
Target sequence (P16473 whole entry, looked up): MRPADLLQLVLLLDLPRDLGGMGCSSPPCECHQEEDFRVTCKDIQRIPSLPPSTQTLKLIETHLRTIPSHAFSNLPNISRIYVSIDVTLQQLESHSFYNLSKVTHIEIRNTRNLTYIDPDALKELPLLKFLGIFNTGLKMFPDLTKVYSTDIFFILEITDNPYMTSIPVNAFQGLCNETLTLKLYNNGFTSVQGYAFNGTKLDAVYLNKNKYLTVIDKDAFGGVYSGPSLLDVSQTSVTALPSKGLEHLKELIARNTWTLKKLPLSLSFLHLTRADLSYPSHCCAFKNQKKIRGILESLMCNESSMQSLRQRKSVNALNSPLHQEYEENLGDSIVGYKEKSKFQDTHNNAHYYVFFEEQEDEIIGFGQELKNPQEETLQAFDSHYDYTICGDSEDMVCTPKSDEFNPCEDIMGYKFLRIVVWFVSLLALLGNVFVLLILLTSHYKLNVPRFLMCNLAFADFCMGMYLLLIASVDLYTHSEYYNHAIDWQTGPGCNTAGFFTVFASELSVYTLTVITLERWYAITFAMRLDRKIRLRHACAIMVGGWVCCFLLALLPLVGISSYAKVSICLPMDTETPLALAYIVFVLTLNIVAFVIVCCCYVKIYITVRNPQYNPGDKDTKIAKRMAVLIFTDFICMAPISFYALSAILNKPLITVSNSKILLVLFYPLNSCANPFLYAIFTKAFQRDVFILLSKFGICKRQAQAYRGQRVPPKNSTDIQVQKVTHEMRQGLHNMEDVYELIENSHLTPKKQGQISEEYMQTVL
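cAMP rise detected as CNG-channel membrane depolarization by fluorescent dye (emission 590 nm), 30 min after compound, following 60 min dye loading containing 100 uM RO 20-1724 at room temperature. Cells: TSHR/CNG HEK 293, with parental CNG HEK 293 as control.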
Resorufin fluor: compound fluoresces in the resorufin spectral region. Compound fluorescence, resorufin region 547/598 nm, buffer; hits give high values. max dye-equivalent concentration, M. 59,000 compounds, 0.04% hits. AID 588; active = above 10 nM dye equivalent; inconclusive = 1 to 10 nM; inactive = 1 nM or less; a few of its hits are not listed in these tables; note: highest value over a series up to 38 µM
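Intrinsic fluorescence profiled in the resorufin window (ex 547 nm, em 598 nm) after 15 min at room temperature in pH 8.0 Tris buffer (100 mM); responses normalized against a six-point resorufin standard series as dye-equivalent concentration.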
A488 fluor: compound fluoresces in the A488 spectral region; compound autofluorescence, A488 spectral region, dye equivalency; hits give high values; max dye equivalency, M; 59,000 compounds, 0.1% hits; AID 591; active = above 10 nM dye equivalent; inconclusive = 1 to 10 nM; inactive = 1 nM or less; about half of its hits are not listed in these tables;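 note: highest value over a series up to 38 µM; compound alone in buffer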
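Readout is A488 dye-equivalent concentration, calibrated by a per-plate six-point Alexa 488 series. Compounds in 100 mM Tris buffer pH 8.0 were incubated 15 min at room temperature. Plates were imaged using 480 nm excitation/540 nm emission filters.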
Starred values were filed as active, the others as inactive; i = inactive; u = inconclusive; x = not tested or not shown; & = joins results of further samples; [ ] = dose if it differs, or a comment. These rows are one share of the data; the hit share may differ from the screen's.

SMILES | A647 autofl | AID923 | TSHR ag | Resorufin fluor | A488 fluor
CCCC1C(c2ccco2)NC(c2ccco2)CC1(C)O (centres undefined) | 5.4e-09 | -0.6% | 14% | i | i
CCOc1cccc(=O)c2c(C)n(Cc3ccco3)c(C)c12 | x | 17% | u | x | x
CCCc1[nH]n(-c2nc3ccccc3s2)c(=O)c1C=NCC1CCCO1 (centres undefined) | 1.9e-08 | -3.4% | 3% | i | i
Cc1cc(C(=O)CN2C(=O)CCC2=O)c(C)n1Cc1ccccc1 | 1e-09 | -0.9% | u | i | i
O=C(O)[C@@H]1[C@@H](C(=O)NCc2ccncc2)[C@@H]2C=C[C@@H]1O2 | 1.7e-08 | 2.8%[11.5 µM] | 2%[11.4 µM] | i | i
CCc1ccccc1N(C(=O)Cn1nnc2ccccc21)C(C(=O)NCCOC)c1ccco1 (centres undefined) | 3.5e-08 | 2.4% | 30% | i | i
CCCCCc1nc2sc3c(c2c(=O)n1N)CCC3 | 1.9e-08 | x | x | i | i
CC1(c2ccc(OC(F)F)cc2)NC(=O)N(CC(=O)Nc2ccc3c(c2)OCO3)C1=O (centres undefined) | 7.6e-09 | -1.7% | -11% | i | i
Cc1cc(NC(=O)COn2nnc3ccccc32)no1 | 3.1e-09 | -0.3% | 3% | i | i
COc1ccc(C(=O)Nc2nncs2)c(OC)c1 | x | -1.0% | -3% | x | x
COc1ccc(C2NCCc3cc(OC)c(OC)cc32)cc1OC (centres undefined) | 1.7e-09 | 0.1% | 9% | i | i
CCOC(=O)c1cccc(NC(=O)CN2CCN(c3ccc(OC)cc3)CC2)c1 | 3.5e-08 | 1.0% | -3% | i | i
COc1ccccc1Cc1noc(-c2cc(Cl)ccc2OC)n1 | 1.9e-08 | 0.0% | 10% | i | i
COc1cc2nc(N3CCNCC3)nc(N)c2cc1OC | 6.2e-09 | 1.6% | 9% | i | i
Cc1noc(C)c1C(=O)N1CCC[C@@]2(CCN(c3ccccc3)C2)C1 | 1e-09 | 8.3% | -4% | i | i
O=C(CC1(O)C(=O)N(Cc2ccc3c(c2)OCO3)c2ccccc21)c1ccccc1 (centres undefined) | 2.7e-09 | -0.6% | 15% | i | i
O=C(O)C1CCCN1C(=O)Oc1ccccc1 (centres undefined) | 1e-09 | 1.2% | -1% | i | i
C=CC[C@@H]1C=C[C@@H](O/N=C2/[C@H]3O[C@@H]3[C@@H](O)[C@H]3[C@H]2CCn2c(=O)n(-c4ccccc4)c(=O)n23)[C@@H](CO)O1 | x | 2.2%[11.5 µM] | 3%[11.4 µM] | x | x
CCOCCCNS(=O)(=O)c1ccc2c(c1)OCCO2 | 1.7e-08 | 0.2% | 0% | i | i
O=C1CN(S(=O)(=O)c2ccc(F)cc2)CC(=O)N1CCc1ccccc1 | 1e-09 | 1.1% | 1% | i | i
CC(C)(C)C(=O)Nc1c2c(nc3c1CCC3)CCCC2 | 4.9e-08 | -1.4% | 4% | i | i
CCCn1c(=O)c2ccccc2n2c(SCC(=O)c3ccc(F)cc3)nnc12 | 3.7e-08 | 0.2% | 3%[11.4 µM] | i | i
CCOC(=O)CC(=O)Nc1ccc(Br)cc1C(=O)O | x | -1.2% | 25% | x | x
Cc1cc(N2C(=O)C(=O)/C(=C(/O)c3ccc(F)cc3)C2c2ccc(F)cc2)no1 (centres undefined) | 1.7e-09 | x | x | i | i
Cc1ccc(S(=O)(=O)NC2=NCN(C3CCCCC3)CN2)cc1 | 1.4e-08 | 1.4% | -1% | i | i
O=C(N[C@@H](c1ccccc1)[C@@H]1C[C@H]1C(=O)O)OCc1ccccc1 | x | -4.8% | 2% | x | x
CN1/C(=C\P(=O)(N(C)C)N(C)C)C(C)(C)c2ccccc21 | 1e-09 | 0.3% | u | 1e-08M* | i
O=C(O)c1ccccc1SCc1ccc2c(c1)OCO2 | 1e-09 | 0.5% | 3% | i | i
CC(C)=NO[C@@H](C)c1cn([C@H](CO)Cc2ccccc2)nn1 | x | -1.6%&-2.3%[11.5 µM] | -7%&4%[11.4 µM] | x | x
CN(C)CCCNCCCCNC(=O)/C=N/O | 1e-09 | x | x | i | i
CCCn1nnnc1SCC(=O)c1ccc(NC(C)=O)cc1 | 1.9e-08 | 1.9% | 0% | i | i
COc1ccc(N2C(=O)C3CCCN3C2c2ccc(C)o2)cc1Cl (centres undefined) | 1e-09 | 0.3% | 5% | i | i
COC(=O)C1=C(C)Nc2ncnn2C1c1ccc(OC(=O)c2ccccc2)cc1 (centres undefined) | 4.6e-09 | 4.4% | 7%[11.4 µM] | i | i
C=CCC(NCCCO)c1cccc(OC)c1OC (centres undefined) | 1.8e-08 | -0.4% | -2% | i | i
Cc1nc2ncnn2c(C)c1CCC(=O)N1CCOCC1 | 5e-09 | -0.3% | 1% | i | i
CCCCCCCCCCCC(=O)O[C@H](CC(=O)O)C[N+](C)(C)C | x | -0.6% | 26% | x | x
CCOc1ccc(OCc2cccc(C(=O)O)c2)cc1 | 1e-09 | 1.3% | 3% | i | i
O=c1c(-c2ccccc2)c(O)c2cccc3c2n1CCC3 | 1e-09 | 3.0% | 7%[11.4 µM] | i | i
CN(C)Cc1c(O)ccc2occ(C(O)c3ccccc3)c12 (centres undefined) | x | 2.0% | 10% | x | x
Cc1nc(NCCN2CCOCC2)c2oc3ccccc3c2n1 | 3.1e-08 | 2.0% | 1% | i | i
Cc1cccc(OCCc2nnc(N)s2)c1C | 3.2e-08 | -1.1% | u | i | i
Cc1ccc(-n2nc3cc(Cl)c(NC(=O)c4ccco4)cc3n2)cc1 | 5.8e-09 | x | x | i | i
NS(=O)(=O)c1cc2c(cc1Cl)NC(C(Cl)Cl)NS2(=O)=O (centres undefined) | 2.1e-08 | -0.7% | x | i | i
Nc1nnc(CSCc2ccccc2)s1 | 1e-09 | 2.3% | -9% | i | i
CC(C)CN(C(=O)CSc1nnc2c(Cl)cc(C(F)(F)F)cn12)C1CCS(=O)(=O)C1 (centres undefined) | 1.8e-08 | -0.7% | -16% | i | i
C=CCOc1ccc(/C=C/C(C)=N\O)cc1 | x | -1.4% | 2% | x | x
CCOC(=O)C1C(=O)N(C(=O)c2cncc(Br)c2)CC1c1ccccc1 (centres undefined) | x | -0.8% | u | x | x
O=S(=O)(O)c1nnc2sc3ccccc3n12 | 5.1e-09 | 0.0% | 0% | i | i
O=c1c(-c2cc(F)cc(F)c2)nc2cnc(N3CCOCC3)nc2n1Cc1ccc(F)cc1 | 1.3e-08 | u | u | i | i
Cc1cc(C(=O)Nc2ccccc2C#N)n(-c2ccccc2)n1 | x | 4.0% | 3% | x | x

6 entries out of the list, arranged by heavy-atom count, falling.
SMILES | A647 autofl | AID923 | TSHR ag | Resorufin fluor | A488 fluor
CC(C)CN(C(=O)CSc1nnc2c(Cl)cc(C(F)(F)F)cn12)C1CCS(=O)(=O)C1 (centres undefined) | 1.8e-08 | -0.7% | -16% | i | i
CCOC(=O)C1C(=O)N(C(=O)c2cncc(Br)c2)CC1c1ccccc1 (centres undefined) | x | -0.8% | u | x | x
Cc1cc(C(=O)Nc2ccccc2C#N)n(-c2ccccc2)n1 | x | 4.0% | 3% | x | x
Cc1cccc(OCCc2nnc(N)s2)c1C | 3.2e-08 | -1.1% | u | i | i
C=CCOc1ccc(/C=C/C(C)=N\O)cc1 | x | -1.4% | 2% | x | x
Nc1nnc(CSCc2ccccc2)s1 | 1e-09 | 2.3% | -9% | i | i

The list goes on:
SMILES | A647 autofl | AID923 | TSHR ag | Resorufin fluor | A488 fluor
CCNc1nc(N)c(C(=O)c2ccc(Cl)s2)s1 | 4.1e-08 | 0.8% | -26% | i | i
COc1ccc(C(=O)NCc2nnc(SCC(=O)N3CCC(C)CC3)o2)cc1OC | 1e-09 | 0.5% | 19% | i | i
Cc1cc(C)c2c(c1)NC(=O)C2(O)CC(=O)c1cccs1 (centres undefined) | 1e-09 | 0.8% | 3% | i | i
CCN1CCCC1CNC(=O)c1cn(CC)c2ccc(S(=O)(=O)N3CCCCCC3)cc2c1=O (centres undefined) | 1e-09 | 0.5% | 17% | i | i
CC(C)OCCCNC(=O)c1ccc(NS(C)(=O)=O)cc1 | 3.2e-09 | 1.2% | -1% | i | i
COc1cc(SC)ccc1C(=O)Nc1ccc(S(=O)(=O)N2CCCC2)cc1 | x | 3.2% | 7% | x | x
COc1ccc(N2C(=O)C(Cl)=C(N(CCO)Cc3ccccc3)C2=O)cc1 | 5.3e-09 | -1.0% | x | i | i
CCCn1c(=O)c2c(ncn2C)n(CCC)c1=O | 1.3e-08 | -5.3% | 5% | i | i
O=C(COc1ccc(S(=O)(=O)NC2CCCCC2)cc1)NCC1CCCO1 (centres undefined) | 2e-08 | 1.2% | 3% | i | i
CCOc1ccc(C(C)(C)C)cc1S(=O)(=O)N1CC(C)OC(C)C1 (centres undefined) | 1e-09 | 0.2% | -15% | i | i
Cn1c(=O)cc(OCCCC(=O)N2CCN(c3ccccn3)CC2)c2ccccc21 | 1e-08 | -0.5% | -3%[11.4 µM] | i | i
CCOC(=O)Cc1c(C)c2c(C)nn(-c3ccccc3)c2oc1=O | 1e-09 | -0.3% | u | i | i
CCOC(=O)N1CCN(C(=O)c2cccn3c(=O)c4sccc4nc23)CC1 | 1e-09 | 14% | 1% | i | i
Cc1nc2sc3c(c2c(=O)o1)CC(C)(C)OC3 | 1e-09 | x | x | i | i
CC1Cc2ccccc2N1C(=O)CSc1nc2ccccc2o1 (centres undefined) | 1.3e-08 | 0.2% | u | i | i
O=C(C1CCCN(S(=O)(=O)c2cnc[nH]2)C1)N1CCN(Cc2ccccc2)CC1 (centres undefined) | x | 1.1% | 2% | x | x
Nc1nc2ccc(C(=O)NC3CCCCC3)cc2s1 | 4e-09 | -0.8% | 4% | i | i
O=C(CN1CCN(c2ccccc2)CC1)Nc1c(C(=O)C2CC2)oc2ccccc12 | 4.3e-08 | -0.6% | u | i | i
Cc1ccc(C)c(S(=O)(=O)N2CC(=O)Nc3ccccc32)c1 | 6.7e-09 | 2.7% | 2% | i | i
CCOc1nc(-c2ccc(OC)cc2)ccc1-c1noc(C)n1 | 3.6e-08 | 3.7% | 14% | i | i

Some values from the results shown:
Under AID923, CCNc1nc(N)c(C(=O)c2ccc(Cl)s2)s1 reads 0.8%
Under TSHR ag, O=c1c(-c2ccccc2)c(O)c2cccc3c2n1CCC3 reads 7%[11.4 µM]

Other records.
SMILES | A647 autofl | AID923 | TSHR ag | Resorufin fluor | A488 fluor
Cc1c(Nc2ncnc3c2cnn3-c2ccccc2)c(=O)n(-c2ccccc2)n1C | 3.1e-08 | 2.9% | 6% | i | i
O=C(O)C1C2C=CC(O2)C1C(=O)Nc1ccc2c(c1)OCCO2 (centres undefined) | x | 3.7% | -5% | x | x
Cc1ccc(-c2nnn(CC(=O)N(CCO)C(C(=O)NC(C)(C)C)c3ccncc3)n2)cc1 (centres undefined) | 2e-08 | 1.2% | 20% | i | i
COCC(=O)N1CCC2(CC1)CN(c1ccccn1)C2 | 9.4e-09 | 1.3% | u | i | i
Cc1ccc(CNC(=O)C2CCN(S(=O)(=O)c3c(C)noc3C)CC2)cc1 | 4.3e-09 | 0.2% | -1% | i | i
N#CCSc1nnc2ccc3ccccc3n12 | 1e-09 | -1.2% | 6% | i | i
C/C=C/OC(=O)NC(c1ccccc1)[C@@]1(C(=O)OC)CCCC1=O (some centres undefined) | x | -0.6%[11.5 µM] | -2%[11.4 µM] | x | x
COCCn1c(N)c(C(=O)NCC2CCCO2)c2nc3ccccc3nc21 (centres undefined) | 2.8e-09 | x | x | i | i
N#CC(C#N)=c1ccc2c(c1)N1C3=C(CCCC3)CC3CCCCC31N=2 (centres undefined) | 1e-09 | 1.1% | u | i | i
COc1ccc(Cl)cc1C(=O)Nc1ccccc1N1CCN(C(=O)C(C)C)CC1 | 5e-09 | 2.1% | 7% | i | i
